# Mtb MbtI inh – MbtI salicylate synthase inhibitors, primary screen, biochemical, fluorescence intensity | P9WFX0 | purified MbtI enzyme, fluorescence intensity read-out | inhibition, %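 (about 17 µg/mL by stock and volumes)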 | actives 0.89% (n = 100,000) | AID 493033, 2011;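 active means above 50% in both replicates, above 80% if mildly self-fluorescent; inactive means the rest, strongly fluorescent compounds included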;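 further: 0% = mean of negative and 100% = mean of positive controls; one replicate is shown; some compounds called inactive have numbers as strong as hits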
# Target sequence (P9WFX0 whole entry, looked up): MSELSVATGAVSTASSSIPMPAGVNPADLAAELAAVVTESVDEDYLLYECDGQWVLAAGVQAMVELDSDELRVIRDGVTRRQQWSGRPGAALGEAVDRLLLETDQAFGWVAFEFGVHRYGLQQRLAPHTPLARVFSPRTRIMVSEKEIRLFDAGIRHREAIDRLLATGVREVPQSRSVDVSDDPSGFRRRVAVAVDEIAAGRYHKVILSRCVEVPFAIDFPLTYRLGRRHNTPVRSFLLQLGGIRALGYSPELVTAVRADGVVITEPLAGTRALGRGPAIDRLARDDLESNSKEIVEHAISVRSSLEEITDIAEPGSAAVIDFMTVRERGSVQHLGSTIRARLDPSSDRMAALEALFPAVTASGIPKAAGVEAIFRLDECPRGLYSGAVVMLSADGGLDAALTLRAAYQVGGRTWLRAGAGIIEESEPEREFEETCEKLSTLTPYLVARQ
# Numbers without * were called inactive.
Structure | Mtb MbtI inh
CC(=O)Nc1ccc(-c2nnc(-c3ccccc3)c(-c3ccccc3)n2)cc1 | -5
O=C(OCC(=O)N1CCc2ccccc21)c1ccccc1C(=O)N1CCN(c2ccc(F)cc2)CC1 | 57
Nc1ccc(Oc2ccc3c(c2)C(=O)N(Cc2cccnc2)C3=O)cc1 | -9
COC(=O)C(CCCN1C(=O)c2ccccc2C1=O)(NC(C)=O)c1nnn(C)n1 (centres undefined) | -4
Cc1cc(Oc2ccccc2)nc(Oc2ccc(=O)[nH]n2)n1 | -7
CCOC(=O)c1ccc(CN)o1 | 2
O=C(O)Cn1ncc2c3ccccc3n(Cc3ccc(Cl)cc3)c2c1=O | 0
N#CC1=C(SCC(N)=O)NC2=C(C(=O)CCC2)C1c1ccccc1Cl (centres undefined) | -9
COc1ccc(CNc2ccc3[nH]c(=O)[nH]c3c2)cc1OC | -20
CC1C(=O)CC(c2ccccc2)N(C)C1c1ccccc1 (centres undefined) | -10
CCCc1nnc2n1Nc1nc3ccccc3nc1S2 | -13
COc1ccc2c(c1OC)C(=O)OC2CC(=O)O (centres undefined) | -2
O=C(NC1CCCCC1)c1ccc2nsnc2c1 | -14
COC(=O)CSC1=C(C#N)C(=O)NC2(CCCCC2)S1 | 0
NC(=O)COc1ccc(=O)n(-c2ccccc2)n1 | 3
O=C(O)C(Cc1ccccc1)n1cccc1 (centres undefined) | -8
O=c1[nH]c(NCCO)c(I)c(=O)[nH]1 | 68*
N#Cc1c(OC(=O)c2ccco2)ccc(OC(=O)c2ccco2)c1C#N | -46
O=C(O)CC(Cc1ccccc1)c1ccco1 (centres undefined) | -8
CCn1c(=N)n(CCOc2ccc(OC)cc2)c2ccccc21 | -5
CC1CC(C)CN(CCCNC(=O)Cc2c(C(=O)O)n(C)c3ccccc23)C1 (centres undefined) | -5
CCOC(=O)c1cnc(Nc2nc3ccccc3o2)nc1-c1ccccc1 | -2
Nc1nc2ccccc2n1CCN1CCCC1 | -14
CCOc1ccccc1NC(C)=O | -9

# Quoted at random: 8 compounds from above.
Structure | Mtb MbtI inh
Nc1ccc(Oc2ccc3c(c2)C(=O)N(Cc2cccnc2)C3=O)cc1 | -9
COc1ccc2c(c1OC)C(=O)OC2CC(=O)O (centres undefined) | -2
O=C(O)Cn1ncc2c3ccccc3n(Cc3ccc(Cl)cc3)c2c1=O | 0
O=C(O)CC(Cc1ccccc1)c1ccco1 (centres undefined) | -8
Cc1cc(Oc2ccccc2)nc(Oc2ccc(=O)[nH]n2)n1 | -7
CC(=O)Nc1ccc(-c2nnc(-c3ccccc3)c(-c3ccccc3)n2)cc1 | -5
CCOC(=O)c1ccc(CN)o1 | 2
COC(=O)CSC1=C(C#N)C(=O)NC2(CCCCC2)S1 | 0

# Next part:
Structure | Mtb MbtI inh
N#CC1=C(N)C(C#N)(C#N)C(c2cccnc2)C2CSCC=C12 (centres undefined) | -15
Cc1ccsc1CNCC(C)O (centres undefined) | -11
Cc1oc2cc(OC(C)C(=O)O)ccc2c(=O)c1Oc1ccccc1 (centres undefined) | 3
CC(C)(C)C(=O)Nc1nsc(-c2ccccc2)n1 | -2
O=C(O)c1cccc(/C=N/O)c1O | 88
COC(=O)Nc1ccc(S(=O)(=O)N2CCCc3cccc(O)c32)cc1 | -11
CC(=O)NC1=CC(=O)c2nonc2C1=O | 47
C=CCN(CC=C)C(=O)c1ccc2c(c1)OCO2 | -4
Cc1ccc(-c2csc(N)n2)cc1 | -7
CCCCc1cc(=O)oc2cc(OCC(=O)N(CC)CC)c(Cl)cc12 | 8
CCN1C(=O)C(NC(C)=O)c2cc(C)ccc21 (centres undefined) | -1
O=C(Nc1ccc(F)cc1F)c1ccc2c(c1)C(=O)N(Cc1ccco1)C2=O | 2
O=C(NC1CC1)C1CSC(c2cccs2)=N1 (centres undefined) | 7
CC(C)CCNC(=O)c1ccc2c(c1)C(=O)c1ccccc1-2 | -5
COc1ccccc1NC(=O)CCc1c(C)[nH]c(=O)c(C#N)c1C | -15
CC(=O)Nc1ccc(-c2cn(CC(N)=O)cn2)cc1 | -3
NS(=O)(=O)c1ccc(NC(=O)COc2ccccc2)cc1 | -7
CC(C(=O)Nc1sc2c(c1C#N)CCCCC2)N1C(=O)c2ccccc2C1=O (centres undefined) | -9
O=C(O)c1cccc(S(=O)(=O)N2CCCC2)c1 | -6
COC(=O)CNc1ccccc1OC | 0
O=C(Nc1ccccc1)OC1CS(=O)(=O)CC1N1CCOCC1 (centres undefined) | -15
CC1CCCCN1C(=O)NC1(C(F)(F)F)Oc2ccccc2O1 (centres undefined) | 12
Cn1c(=N)n(CC(O)c2ccccc2)c2ccccc21 (centres undefined) | -14
O=C(O)c1cccc(-c2ccc(CO)o2)c1 | -88
O=C1C2C(c3ccccc3)C=CC(c3ccccc3)C2C(=O)N1c1ccc(O)cc1 (centres undefined) | -8
Cc1cccc(N2CCNCC2C)c1 (centres undefined) | -2
CCOC(=O)N1CCN(c2cnn(-c3nc4ccccc4s3)c(=O)c2Cl)CC1 | -2
COc1ccc(C2C(C(=O)Nc3ccc(C(F)(F)F)cc3)c3ccccc3C(=O)N2C)cc1 (centres undefined) | -1
Cc1ccc2c(c1)C(c1ccccc1)N(C(=O)c1ccc(C)c(C)c1)CC(=O)N2 (centres undefined) | -4
CC(C)(CO)NCc1ccc(F)cc1 | 2
CC(C)OC(=O)COc1ccc2c(=O)c(-c3ccc(Cl)cc3)coc2c1 | -5
O=C(CCSCc1ccc(Cl)cc1)NC1CCCC1 | -3
Cn1c(=O)c2c(nc(NCCO)n2Cc2ccc(F)cc2)n(C)c1=O | -9
Cc1cc(C)cc(CC(C(=O)Nc2ccccc2)C(C)C(=O)O)c1 (centres undefined) | -4
Clc1ccc(N2CC=CCC2)nn1 | -3
COC(=O)C1(N)CCCCC1 | -14
CC(C)(C)C(=O)COC(=O)c1nonc1N | 5
CC1CCCC(NC(=O)c2cc(=O)[nH]c3ccc(Br)cc23)C1C (centres undefined) | -8
Cc1nn(-c2ccccn2)c2c1-c1nc(-c3ccc(Cl)cc3)ncc1CC2 | -20
COc1ccc(Cl)cc1NC(=O)C1CSC(c2ccncc2)=N1 (centres undefined) | -7
COc1ccc(C)c(CN(C)C)c1 | -13
CC(C)(C)c1cc(Cl)c(O)c(NC(=O)c2cncc(Br)c2)c1 | -10
CC1(C)Cc2nc(NCCO)c(C#N)cc2CO1 | 110
CCC1C(=O)N=C(SCC(=O)NCc2ccccc2)NC1=O (centres undefined) | -9
O=c1[nH]ncc2c3ccccc3n(Cc3ccccc3)c12 | -13
O=C(Cc1c[nH]c2ccccc12)NC1(C(=O)NC2CCCC2)CCCCC1 | 1
CC(C)Cc1ccc(S(=O)(=O)n2cccn2)cc1 | 11
O=C(Nc1nc(SCc2ccc(F)cc2)ns1)c1cccs1 | 6
O=S(CCc1ccncc1)Cc1ccccc1 (centres undefined) | -7
CC(C)(C(=O)O)N1C(=O)c2ccccc2C1=O | 0
CC1(C)CC(OC(=O)c2ccccc2)CC(C)(C)N1 | -8
COC(=O)c1ccc2cc(C(=O)O)ccc2c1 | 14
CCOC(=O)N1CCc2c(sc(NC(=O)c3ccco3)c2C(=O)Nc2cc(OC)ccc2OC)C1 | 103
N#Cc1c(NC2=CC(=O)CCC2)sc2c1CCCC2 | 1
C=CCn1c(SCc2nc3ccccc3[nH]2)nnc1-c1ccccc1 | -2
O=C(NC1CCCCC1)/C(=N\O)c1ccccc1 | -6

# Part of the list above, with each value named:
CC1(C)CC(OC(=O)c2ccccc2)CC(C)(C)N1
  Mtb MbtI inh: -8
COC(=O)c1ccc2cc(C(=O)O)ccc2c1
  Mtb MbtI inh: 14
CCOC(=O)N1CCc2c(sc(NC(=O)c3ccco3)c2C(=O)Nc2cc(OC)ccc2OC)C1
  Mtb MbtI inh: 103
N#Cc1c(NC2=CC(=O)CCC2)sc2c1CCCC2
  Mtb MbtI inh: 1

# Additional compounds follow:
Structure | Mtb MbtI inh
COc1cccc(NC(=O)c2ccc3c(c2)C(=O)N(C2CCCCC2)C3=O)c1 | -15
Nc1cc(-c2ccc(Br)cc2)no1 | -10
O=C(O)Cc1ccccc1C(=O)O | -10
c1coc(C2=Nc3cccc4cccc(c34)N2)c1 | 16
COc1ccc2nc(C)c(C(=O)OCCN(C)C)cc2c1 | 73
Cc1ccc2[nH]c3c(c2c1)CCCC3CN (centres undefined) | 10
O=C(Nc1ccc2c(c1)C(=O)NC2=O)c1ccco1 | 5
COc1ccc(C(=O)NCC(=O)NC2=NCCS2)cc1 | -8
COc1cc(C(C(=O)Nc2c(C)cccc2C)N(C)C(=O)c2ccc(-n3cnnn3)cc2)ccc1O (centres undefined) | -16
Cn1c2ccccc2c2cnn(CNC(=O)Nc3ccc(F)cc3)c(=O)c21 | 31
Cc1ccccc1C(=O)NCC1CCCN2CCCCC12 (centres undefined) | -3
O=C(O)CCC(=O)N(Cc1cccs1)Cc1cccs1 | -5
CC1CCCCC1NC(=O)C1c2cccn2CC(=O)N1Cc1ccccc1 (centres undefined) | -11
COC(=O)c1cc(=O)[nH]c(SCc2cccc(C)c2)n1 | -8
O=C1CCc2c1[nH]c1ccc(OCc3ccccc3)cc21 | -86
CNc1nc2ccccc2n1CCO | -2
Cc1ccc2c(c1)NCC(C(=O)NCc1ccccc1)O2 (centres undefined) | -16
Cc1ccc(OCCC(=O)O)cc1 | 2
COC(=O)Oc1cncc(C(=O)O)c1 | -51
Cc1n[nH]c(C)c1Cc1ccc(C(=O)O)cc1 | -12
C=CCc1nc(C)c(CC(=C)C)c(=O)[nH]1 | 1
COc1ccccc1CNc1ccc(CNc2ncn[nH]2)cc1 | -8
CCc1ccc(NC(=O)CCS(=O)(=O)c2cccc3nonc23)cc1 | 1
Cc1cn(CC(C)C)c(=O)[nH]c1=O | 4
N#CCCn1[nH]c(-c2ccccc2)cc1=O | -6
CCCN(CCC)S(=O)(=O)c1ncn[nH]1 | -20
Cc1ccc(N)c(C(=O)O)c1Br | -8
CCC(C)COC(=O)c1ccc(C(=O)O)cc1 (centres undefined) | -10
COC(=O)c1[nH]c2c(c1C)C(=O)CCC2 | 3
Cc1sc(C(=O)NCCc2ccccc2)c2nc(C)n(CC(=O)NCCc3ccccc3)c(=O)c12 | 2
CC(NC(=O)c1cc(=O)[nH]c2ccc(Br)cc12)c1ccccc1 (centres undefined) | -4
O=C1CC(C(=O)O)c2ccccc2N1 (centres undefined) | -10
COC(=O)C1=C(N)Oc2c(c(=O)oc3ccccc23)C1c1cccnc1 (centres undefined) | -18
Cc1nc(SCC(=O)Nc2ccccn2)n[nH]1 | -15
Cc1cc(C)n(CC(=O)O)c(=O)n1 | -3
O=C1SC(Nc2ccccc2)C(=O)N1c1ccccc1 (centres undefined) | -10
O=C(O)c1cc2cccc(S(=O)(=O)N3CCCCC3)c2cc1O | -7
O=c1ccnc2c1c(-c1ccccc1)nc1[nH]onc12 | 4
COc1ccc(C(=O)CSc2nc3nc(C)cc(C)c3c(=O)[nH]2)cc1OC | -6
C=CCSc1nn2c(=O)c3ccccc3nc2s1 | 3
OC(C#CCN1CCCCC1)c1ccccc1 (centres undefined) | -3
CCOC(=O)C1(C(=O)OCC)Oc2c(OC)cccc2C1O (centres undefined) | -3
C=CCNC(=O)COc1ccc(C)cc1 | -10
O=C(c1cccs1)N1CCC(c2ccccc2)C1 (centres undefined) | -10
COc1cc(NC(=O)c2cc(=O)n3c(nc4ccccc43)s2)cc(OC)c1 | -14
O=c1oc2ccccc2c(N2CCCCC2)c1CN1CCCCC1 | -10
CC(C)COC(=O)c1ccccc1OC(=O)c1ccncc1 | -2
O=C(CCCN1C(=O)c2cccnc2C1=O)Nc1ccc(C(F)(F)F)cc1 | 0
CCOC(=O)c1c(NC(C)=O)sc2c(OCC(O)CNC(C)(C)C)c(Br)ccc12 (centres undefined) | -7
CCOc1ccc(C2C3=C(CCCC3=O)NC3=C2C(=O)c2ccccc23)cc1 (centres undefined) | -5
CCOC(=O)CCCn1ncn2c(cc3occc32)c1=O | 0
O=C(O)C1C2C=CC(C2)C1C(=O)NCCCn1ccnc1 (centres undefined) | -15
O=C(O)CCc1nn2c3ccccc3nc2n(-c2ccccc2)c1=O | -8
Cc1nc2c(c(C)nn2C(C)(C)C)c(C)c1CCC(=O)O | -36
CC(C)N1CCN(Cc2ccccc2)CC1 | -13
Cc1cccc(C(=O)OC(C)CN2CCCC2)c1 (centres undefined) | -2

# (list continues)
Structure | Mtb MbtI inh
CC(=O)n1ccc2ccccc21 | 1
COC(=O)c1cccc(NC(=O)CCCN2C(=O)c3ccccc3C2=O)c1 | -12
CCC(=O)N1c2ccccc2NC2=C(C(=O)CCC2)C1c1ccccc1 (centres undefined) | -8
O=c1nc(NCc2ccco2)sc2ncccc12 | -7
Cc1cc(NC2CCCCC2)nc2ccc(N)cc12 | -44
CCOc1cccc(=O)c2c(C)n(CC(=O)c3ccccc3)c(C)c12 | 0
Cc1ccc(Cn2c(NC(=O)c3cccs3)nc3ccccc32)cc1 | -5
CC(C)Cc1cc(-c2ccccc2)c(C#N)c(N)n1 | -47
O=C(NCc1ccncc1)c1cccc(Cn2cc(Br)cn2)c1 | -3
COc1ccc(C2(CNC(=O)CCOc3ccccc3)CCOCC2)cc1 | -13
CCc1nnc(NC(=O)c2ccc(S(=O)(=O)N3CCCC3)cc2)o1 | 1
Nc1c(C2=NCCO2)nnn1Cc1ccccc1 | -8
O=C1CCCCC(=O)N(c2ccccc2)c2ccccc21 | -17
CCn1c(=O)cc(SCC(=O)NCCc2ccc(C)cc2)c2ccccc21 | 0
CC(=O)Nc1ccccc1C(=O)OCC(=O)Nc1ccc(S(N)(=O)=O)cc1 | 46
CSc1nnc(SCc2nc3ccccc3[nH]2)s1 | 3
CCOC(=O)N1CCC(NC(=O)CCC(=O)N2CCOc3ccccc32)CC1 | -10

# Screens from PubChem BioAssay.

# These rows are one share of the data; count on the stated rates, not on these rows.
